Screening results: PubChem BioAssay, Fisher Drug Discovery Resource Center
NPYLR7 agonist = agonists of mosquito NPYLR7 receptor, primary screen, cell-based, Aedes aegypti, calcium fluorescence, mosquito biting behavior; Aedes aegypti neuropeptide Y-like receptor 7 (NPYLR7); activation, % at 10 µM; hit rate 0.15% among 270,000; HEK293T NPYLR7/Galpha15, GCaMP6s calcium fluorescence; AID 1259423, 2018; in the data active = activation above about 40%;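 also: 0% = vehicle and 100% = reference agonist at the receptor; some compounds past the cut are filed as inactive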
NPYLR7 agonist max-min = second read-out of NPYLR7 agonist, no call of its own (marks repeat the call); activation, %; measured here: Max-Min RFU normalised activation; some inactives read as strong as hits;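 span of the calcium signal over five minutes; 0% = vehicle and 100% = native peptide agonist; compound fluorescence can raise it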
The depositor's hits bear a star; & = joins results of further samples. Some of the compounds tested; the hit share may differ from the screen's.

Results follow in this order: NPYLR7 agonist max-min | NPYLR7 agonist
1	Cc1cc(-n2cccn2)ccc1CN1CCCC(CO)(Cc2ccccc2)C1 (stereo not given)
  -1 | 1
2	CCN(CC)c1ccc(C=C2C(=O)NC(=O)NC2=O)c(O)c1
  -23 | -16
3	C/C(=N/N=C1\NC(=O)C(CC(=O)Nc2ccc(Cl)cc2Cl)S1)c1ccc(F)cc1 (stereo not given)
  2 | 4
4	Cc1ccsc1C=C(C#N)C(N)=S
  12 | 14
5	Cc1ccc(C(=O)N2CCN(S(=O)(=O)c3cccc(Cl)c3)CC2)o1
  -14 | -12
6	O=c1oc2ccc3ccccc3c2cc1-c1nnc(Nc2cccc(C(F)(F)F)c2)s1
  -8 | -4
7	Cn1cc(NC(=O)NCCn2ccc3ccccc32)c2ccccc21
  -2 | 2
8	c1cc(CN(Cc2ccsc2)CC2CCCO2)n(-c2nccs2)c1 (stereo not given)
  -9 | -6
9	CCCc1cc(=O)[nH]c2nnc(SCC(=O)NC(C)(C)C)n12
  -5 | -6
10	CC(=NN=C(N)N)c1ccc(C)c(C)c1
  -8 | -3
11	CNC(=O)c1cc(Nc2nnc(-c3ccc(C)cc3)c3ccccc23)ccc1OC
  -24 | -20
12	C=CCn1c(SCC(=O)NCC2CCCO2)nnc1-c1cccc(C)c1 (stereo not given)
  -12&4 | -8&-3
13	Cc1ccc(N(CCCCN2C(=O)c3ccccc3C2=O)C(=O)C(C)C)cc1
  -5 | -3
14	CN(NC(=O)c1ccc(-n2nc(-c3ccc(Cl)cc3)cc2N)cc1)c1ccccc1
  -7 | -3
15	COCC(=O)Nc1cc(C(=O)N2CCC(c3ccncc3)CC2)c2c(c1)nc(C1CCC1)n2C
  -2 | 2
16	CS(=O)(=O)Oc1ccc(CN(Cc2ccco2)C(=O)Nc2ccccc2F)cc1
  5 | 10
17	CNC(=O)CNc1ncnc2cc(-c3ccc(OC)cc3)sc12
  3 | 5
18	Cc1ncc2c(c1CNC(=O)c1ccsc1)CCN(C(=O)/C=C/c1ccc(Cl)cc1)C2
  -5 | -3
19	CN(C(=O)CN1C(=O)NC2(CCCCCC2)C1=O)C1CCS(=O)(=O)C1 (stereo not given)
  -7 | -2
20	CN(C)Cc1nnc(C(=O)N2C[C@H](O)[C@@H](N3CCCCC3)C2)o1
  31 | 0

Ordered by number of heavy atoms (rising): 3 of the compounds above.
Results follow in this order: NPYLR7 agonist max-min | NPYLR7 agonist
9	CCCc1cc(=O)[nH]c2nnc(SCC(=O)NC(C)(C)C)n12
  -5 | -6
17	CNC(=O)CNc1ncnc2cc(-c3ccc(OC)cc3)sc12
  3 | 5
12	C=CCn1c(SCC(=O)NCC2CCCO2)nnc1-c1cccc(C)c1 (stereo not given)
  -12&4 | -8&-3

The listing continues:
Results follow in this order: NPYLR7 agonist max-min | NPYLR7 agonist
21	c1ccc(-c2cn3ccsc3n2)cc1
  -10 | -7
22	O=c1c2ccccc2c(=O)c2c1c(Nc1ccccc1)cc1oc3ccccc3[nH]c12
  -6 | 0
23	COc1ccc(C(=O)N(CC(=O)N(Cc2ccc3c(c2)OCO3)Cc2cccs2)CC2CCCO2)c(OC)c1 (stereo not given)
  21 | 21
24	CC(C(=O)Nc1ccc(F)cc1F)N1CCN(S(=O)(=O)c2ccc3c(c2)CCC3)CC1 (stereo not given)
  14 | 15
25	COCCOc1ccc(NS(=O)(=O)c2ccccc2OC)c(C)c1
  -9 | -7
26	O=C(COc1ccccc1)NNC(=O)COc1cccc(F)c1
  5 | 14
27	COc1ccc(-n2c(SCC(=O)NCC3CCCCC3)nnc2-c2ccncc2)cc1
  4 | 1
28	OC(COCc1ccccc1)CN(Cc1ccc2c(c1)OCO2)Cc1ccccc1F (stereo not given)
  11 | -3
29	O=C(Cc1cc(-c2cc3ccccc3o2)on1)N1CCOCC1
  7 | 5
30	CCc1nccn1CC(=O)N1CCOC(c2ccc(Cl)c(Cl)c2)C1 (stereo not given)
  0 | 1
31	CCOC(=O)C1=C(O)/C(=C\c2ccc(O)cc2OC)SC1=Nc1cccc(C(F)(F)F)c1
  32 | 22
32	C=CCNC(=O)COc1coc(CN2CCc3ccccc3C2)cc1=O
  27 | -1
33	Cc1cc(C)cc(-c2nc3cc(C)ccn3c2NC(=O)C2CCCC2)c1
  -3 | -12
34	N#Cc1cccc(COC(=O)CN2C(=O)CCOc3ccccc32)c1
  2 | 4
35	CC(C)CCN(C(=O)CN(C)S(C)(=O)=O)C1CCCC1
  -7 | 0
36	Clc1ccccc1C1c2cccn2CCCN1Cc1cccs1 (stereo not given)
  2 | -1
37	O=C(Nc1ccc(Nc2cc(-n3ccnc3)ncn2)cc1)c1c[nH]c2ccccc12
  -17 | -17
38	CC(C)C(C(=O)O)N1C(=O)/C(=C/c2ccc(O)cc2)SC1=S (stereo not given)
  54* | 68*
39	COc1nc2c(cc1C(=O)N1CCC3(CN(C)C(=O)O3)C1)CCC2 (stereo not given)
  8 | 11
40	Oc1ccc(-n2nnnc2SCc2cc3c(cc2Br)OCO3)cc1
  3 | 2

Copied from above: compounds 21 to 40
Results follow in this order: NPYLR7 agonist max-min | NPYLR7 agonist
21	c1ccc(-c2cn3ccsc3n2)cc1
  -10 | -7
22	O=c1c2ccccc2c(=O)c2c1c(Nc1ccccc1)cc1oc3ccccc3[nH]c12
  -6 | 0
23	COc1ccc(C(=O)N(CC(=O)N(Cc2ccc3c(c2)OCO3)Cc2cccs2)CC2CCCO2)c(OC)c1 (stereo not given)
  21 | 21
24	CC(C(=O)Nc1ccc(F)cc1F)N1CCN(S(=O)(=O)c2ccc3c(c2)CCC3)CC1 (stereo not given)
  14 | 15
25	COCCOc1ccc(NS(=O)(=O)c2ccccc2OC)c(C)c1
  -9 | -7
26	O=C(COc1ccccc1)NNC(=O)COc1cccc(F)c1
  5 | 14
27	COc1ccc(-n2c(SCC(=O)NCC3CCCCC3)nnc2-c2ccncc2)cc1
  4 | 1
28	OC(COCc1ccccc1)CN(Cc1ccc2c(c1)OCO2)Cc1ccccc1F (stereo not given)
  11 | -3
29	O=C(Cc1cc(-c2cc3ccccc3o2)on1)N1CCOCC1
  7 | 5
30	CCc1nccn1CC(=O)N1CCOC(c2ccc(Cl)c(Cl)c2)C1 (stereo not given)
  0 | 1
31	CCOC(=O)C1=C(O)/C(=C\c2ccc(O)cc2OC)SC1=Nc1cccc(C(F)(F)F)c1
  32 | 22
32	C=CCNC(=O)COc1coc(CN2CCc3ccccc3C2)cc1=O
  27 | -1
33	Cc1cc(C)cc(-c2nc3cc(C)ccn3c2NC(=O)C2CCCC2)c1
  -3 | -12
34	N#Cc1cccc(COC(=O)CN2C(=O)CCOc3ccccc32)c1
  2 | 4
35	CC(C)CCN(C(=O)CN(C)S(C)(=O)=O)C1CCCC1
  -7 | 0
36	Clc1ccccc1C1c2cccn2CCCN1Cc1cccs1 (stereo not given)
  2 | -1
37	O=C(Nc1ccc(Nc2cc(-n3ccnc3)ncn2)cc1)c1c[nH]c2ccccc12
  -17 | -17
38	CC(C)C(C(=O)O)N1C(=O)/C(=C/c2ccc(O)cc2)SC1=S (stereo not given)
  54* | 68*
39	COc1nc2c(cc1C(=O)N1CCC3(CN(C)C(=O)O3)C1)CCC2 (stereo not given)
  8 | 11
40	Oc1ccc(-n2nnnc2SCc2cc3c(cc2Br)OCO3)cc1
  3 | 2

Additional entries
Results follow in this order: NPYLR7 agonist max-min | NPYLR7 agonist
41	COC(=O)c1cc2n(n1)CCN(C(=O)[C@H]1Cc3ccccc3CN1)C2
  -1 | 3
42	CC1CN(C(C)(C)CNc2nc3ccccc3o2)CC(C)O1 (stereo not given)
  -2 | 0
43	Cc1ccc(C2c3ccccc3CCN2C(=O)c2ccco2)cc1 (stereo not given)
  1 | -3
44	COC(=O)Cn1c(=O)c2c(nc3n(-c4ccc(Cl)cc4)c(C)c(C)n23)n(C)c1=O
  1 | 8
45	CN1C[C@H](NC(=O)CN2CCCCCCC2)C[C@H]1CO
  -2 | -1
46	CCC1COCCN1C(=O)C1CC12CCc1ccccc12 (stereo not given)
  5 | 9
47	CCOc1ccc(-c2n[nH]c(=S)n2CC(=O)NC2CCCCCC2)cc1
  0 | 4
48	CN(CC(=O)Nc1ccc(F)cc1F)Cc1cccs1
  -19 | -18
49	COc1cc(C)ccc1-c1nccn1C(C)CO (stereo not given)
  -8 | -2
50	Cc1ccc(-c2nc3cc(C)ccn3c2NC(=O)Cc2ccc(F)cc2)cc1
  4 | -1
51	COC(=O)Cn1c(CN2CCc3ccccc3C2)nc2c1c(=O)n(C)c(=O)n2C
  12 | 1
52	CCCC(=O)N1CCC1(C)C(=O)Nc1cc(Cl)ccc1F (stereo not given)
  -3 | -1
53	COc1ccc(CN(C)C(=O)c2ccc(SC)nc2)c(OC)c1
  1 | 2
54	Nc1nc(SCC(=O)Nc2ccccc2F)[nH]c(=O)c1NC(=O)c1ccc(Cl)cc1
  -1 | -1
55	N#CC(=Cc1ccc(C#N)cc1)c1nc(-c2ccccc2)cs1
  2 | 5
56	Cc1nn(CC(=O)Nc2ccc3ccn(C)c3c2)c(=O)c2ccccc12
  7 | 7
57	O=C(Cc1csc(-c2ccc(C(F)(F)F)cc2)n1)OC1CCOC1=O (stereo not given)
  7 | 6
58	CCC(CC)n1ncc(C)c1NC(=O)c1nc2nc(C)cc(C)n2n1
  0 | 0
59	CCC1SC(c2ccccc2C)N(CCN2CCN(C(=O)Nc3ccc(C(F)(F)F)cc3)CC2)C1=O (stereo not given)
  3 | -2
60	COCCN(Cc1cnn(C)c1)C(=O)Cc1ccc(Cl)cc1
  -7 | 5

Additional records.
Results follow in this order: NPYLR7 agonist max-min | NPYLR7 agonist
61	CCc1cc(N2CCOCC2)nc(SCc2cccc(C(=O)NCc3cccnc3)c2)n1
  -5 | 8
62	CCN(CC)CCOc1ccc(CNS(=O)(=O)c2ccccc2)cc1
  4 | 9
63	Cc1ccc(-n2c(SCCCCC(=O)N3CCN(C(=O)c4ccc(Cl)c(Cl)c4)C(C)C3)nnc2-c2ccccc2)cc1 (stereo not given)
  11 | 12
64	CC(=O)N1CCc2cc(-c3nc(COc4ccccc4)sc3C)ccc21
  -2 | -1
65	CS(=O)(=O)Nc1nc2n(n1)C(c1ccc(F)cc1)CC(c1ccc(Cl)cc1)=N2 (stereo not given)
  29 | 35
